Rango dissoc inh – inhibition of RanGTP-driven Rango-importin beta dissociation. Potency, µM (highest dose often 46.1 µM), without a hit: at the top dose activity change, negative = inhibition. 340,000 compounds, 0.071% hits. AID 540253. Biochemical FRET Rango-importin beta, RanGTP-induced dissociation; active means falling FRET ratio curve, often poorly fitted, with flat reads before Ran was added; inconclusive means other falling curves, or compound fluorescence or quenching; inactive means flat or rising ratio curve;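 note: potency is the fitted concentration of half-maximal effect; % of control where 0% means no effect; nearly all actives have a fitted effect of over 45% in size; -100% = wells without RanGTP and RCC1; the record marks most hits as doubtful in a second field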
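Two FRET readings bracket the reaction: one 5 min after compound meets Rango–importin beta, another 45 min after RanGTP-RCC1 (0.6 uM Ran, 0.2 uM RCC1, 2 mM GTP) is added. Only the second defines inhibition.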
GLA inh pH 4.5 – alpha-galactosidase A (human) inhibition, pH 4.5; purified enzyme, 4-MU-alpha-Gal fluorescence, pH 4.5; activity change, negative = inhibition, % at 105 µM; 230,000 tested, under 10 active; AID 1467; inconclusive = small, poorly fitted or top-dose-only inhibition, or a rising curve; inactive = flat fitted curve, though single readings scatter; no compound was filed as active;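 note: 0% = full activity with enzyme and -100% = basal without enzyme; dose as in the result columns while the protocol names 77 µM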
miR-21 reporter – miR-21 reporter, rising signal; Potency, µM (highest dose often 38.3 µM), inactives show at the highest dose reporter change, positive = more light; 340,000 tested, under 10 active; AID 2288; HeLa miR-21 FLuc reporter, luciferase, 48 h; active = well fitted rising curve with a large enough effect; inconclusive = small, poorly fitted or top-dose-only effect; inactive = no such curve, though single readings can be large or run the other way;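 note: % of control where 0% means no effect; miR-21 action dims this reporter so a rising signal means less miR-21 action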
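HeLa miR-21-FLuc reporter line, endogenous miR-21; 2000 cells/well in DMEM/10% FBS; compound titration up to ~40uM final, 48 h, 37 degree Celsius; luciferase detection reagent, 15 min lysis, CCD luminescence.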
Rango-impB inh – Rango-importin beta binding inhibition; Q14974; Rango CFP/YFP FRET sensor + importin beta, 45 min; Potency, µM (doses to about 92.2 µM), for inactives: top-dose inhibition of complex formation; 340,000 compounds, 0.031% hits; active = rising FRET ratio curve, often small or poorly fitted; inconclusive = mostly compound fluorescence or quenching in the first reads; inactive = flat curves in all reads;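 note: potency is the fitted concentration of half-maximal effect; 0% = DMSO wells and 100% = buffer wells lacking importin beta; nearly all actives have a fitted effect of over 15% in size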
Target sequence (Q14974 whole entry, looked up): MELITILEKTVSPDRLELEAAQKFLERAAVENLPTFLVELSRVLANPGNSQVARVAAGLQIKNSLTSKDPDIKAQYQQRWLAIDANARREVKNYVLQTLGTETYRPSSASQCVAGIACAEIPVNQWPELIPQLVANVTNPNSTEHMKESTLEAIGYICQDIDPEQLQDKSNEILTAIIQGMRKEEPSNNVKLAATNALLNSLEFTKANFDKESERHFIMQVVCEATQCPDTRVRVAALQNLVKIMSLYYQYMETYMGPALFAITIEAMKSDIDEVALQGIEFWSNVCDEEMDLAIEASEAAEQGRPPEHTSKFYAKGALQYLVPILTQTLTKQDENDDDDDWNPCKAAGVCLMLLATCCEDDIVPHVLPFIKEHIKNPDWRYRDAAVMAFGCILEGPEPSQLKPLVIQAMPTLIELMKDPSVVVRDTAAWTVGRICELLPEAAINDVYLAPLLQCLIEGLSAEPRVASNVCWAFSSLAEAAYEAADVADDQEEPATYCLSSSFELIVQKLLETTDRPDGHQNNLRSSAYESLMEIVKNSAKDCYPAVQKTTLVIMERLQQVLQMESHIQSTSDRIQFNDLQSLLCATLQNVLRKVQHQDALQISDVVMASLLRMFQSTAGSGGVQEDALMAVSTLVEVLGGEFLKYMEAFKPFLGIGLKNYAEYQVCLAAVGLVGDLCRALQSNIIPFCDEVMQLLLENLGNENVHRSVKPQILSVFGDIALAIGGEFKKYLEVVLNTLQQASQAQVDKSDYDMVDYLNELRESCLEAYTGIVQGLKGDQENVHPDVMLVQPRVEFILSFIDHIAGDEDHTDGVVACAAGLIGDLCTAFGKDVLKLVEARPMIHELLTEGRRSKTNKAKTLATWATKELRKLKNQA
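Inhibition scored from the CFP 486 nm/YFP 530 nm FRET ratio 45 min after adding 0.125 microM importin beta to 50 nM Rango biosensor preincubated 5 min with compound (room temperature, PBS with DTT, Tween-20, BSA). No-importin wells as positive control.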
The depositor's hits bear a star; ? = inconclusive; · = not tested or not shown; [ ] = remark or other dose. This is a subset; the hit share may differ from the screen's.

SMILES	Rango dissoc inh	GLA inh pH 4.5	miR-21 reporter	Rango-impB inh
Cc1ccccc1-c1nc(CN2CCC(C(=O)NCC3CCCO3)CC2)c(C)o1 (stereo unspecified)	25%	-2	-5%	-1.5%
COc1ccc(S(=O)(=O)N2CCOC2CNC(=O)C(=O)NCc2ccco2)cc1 (stereo unspecified)	-2%	-3	4%	0.3%
CCOc1ccc(CCNC(=O)C2CCCN(c3nnc(-n4cccc4)s3)C2)cc1OCC (stereo unspecified)	-5%	-22	-6%	-4.3%
Cn1c(=O)oc2cc(S(=O)(=O)NC3CCCc4ccccc43)ccc21 (stereo unspecified)	-6%	0	0%	0.1%
COc1ccc(C(=O)NCCN2CCCC2)cc1	-1%	·	0%	0.2%
CCOc1ccc(CCNS(=O)(=O)c2ccc(-c3ccc(=O)[nH]n3)o2)cc1OCC	21%	·	-5%	-0.5%
COc1ccccc1-c1cn[nH]c1-c1ccc(OCc2ccc([N+](=O)[O-])cc2)cc1O	-9%	2	-2%	-0.8%
CC(=O)Nc1nc2ccc(S(=O)(=O)N3CCCCC3)cc2s1	-5%	·	-4%	0.6%
CN(C)c1ccc(/C=N/NC(=O)CSc2ccccn2)cc1	-2%	-4	-37%	1.6%
Cn1c(=O)n(C)c2cc(N3CCCCC3)c(NC(=O)c3cccc(Cl)c3)cc21	-16%	·	-6%	0.4%
Cc1cc(C)nc(SCc2nnc(SCC(=O)N3CCCc4ccccc43)o2)n1	-10%	3	-10%	0.6%
CC(=O)C1=C(O)C(=O)N(Cc2cccnc2)C1c1ccc(C(C)C)cc1 (stereo unspecified)	10%	·	-7%	-0.2%
CC(=O)Nc1sc(C)c(C)c1CN1CCN(S(=O)(=O)c2ccccc2)CC1	-9%	-15	0%	-0.2%
COC(=O)c1oc2ccc(Br)cc2c1NC(=O)CCN1CCOCC1	8%	-5	-1%	0.4%
COc1ccccc1NC(=O)c1ccc(NC(=O)c2cc3c(s2)CCC3)cc1	3%	1	0%	?
O=C(/C=C/c1ccc(Cl)cc1)NCc1cccs1	9%	3	-56%	-0.5%
O=C(CSc1ccc(Br)cc1)Nc1ccccc1N1CCOCC1	1%	·	0%	-1.8%
Cc1csc(NC(=O)CCN2C(=O)c3ccccc3S2(=O)=O)n1	-7%	-3	-3%	-4.6%
O=C(NCc1ccco1)c1ccc(CS(=O)Cc2ccc(Cl)cc2)o1 (stereo unspecified)	13%	·	-1%	-1.4%
COc1ccc([N+](=O)[O-])cc1NC(=O)Nc1cccc(Cl)c1	-4%	-6	14%	0.3%
CN(c1cccnc1)c1ncnc2[nH]ncc12	5%	5	-3%	-0.5%
O=S(=O)(O)c1cnccc1Nc1cccc(C(F)(F)F)c1	15%	·	·	3.0%
O=C(N/N=C/c1c[nH]c2ccccc12)c1cccs1	7%	-17	-53%	-0.8%
COc1cc([N+](=O)[O-])ccc1NC(=O)Nc1nc2c(s1)CCCC2	-7%	-5	-4%	3.7%
Cc1ccc(OCC(=O)Nc2ccc(Cl)cc2)c(-n2nc3ccccc3n2)c1	13%	6	-1%	-1.2%
COc1cc2c(cc1OC)C(C)N(S(=O)(=O)c1cccs1)CC2 (stereo unspecified)	-9%	·	-5%	6.7%
CC(=O)C(=[N+]=[N-])C(=O)NCc1ccccc1	-2%	-1	-1%	0.4%
COc1ccccc1C1C(C(C)=O)=C(O)C(=O)N1CCc1ccccc1 (stereo unspecified)	2%	6	-10%	-5.1%
Cc1ccc(S(=O)(=O)NCC(=O)N(CC2CCCO2)C(C(=O)NCC2CCCO2)C(C)C)cc1 (stereo unspecified)	4%	·	-1%	?
OCCNc1ccc(Cl)cc1	3%	6	-27%	-1.1%
O=C(Cc1ccccc1Cl)Nc1cc(S(=O)(=O)N2CCOCC2)ccc1N1CCOCC1	2%	·	·	-6.5%
O=S1(=O)N=C(SCCO)c2ccccc21	2%	1	-1%	-7.7%
CCC(C)(C)NC(=O)C(c1cccn1C)N(Cc1ccccc1)C(=O)Cn1nnc2ccccc21 (stereo unspecified)	-9%	6	-5%	?
CC(=O)n1c2c(c3ccccc31)OC(N)=C(C#N)C2c1cccc(Cl)c1Cl (stereo unspecified)	?	-2	-3%	?
Brc1ccc(OCCCN2CCOCC2)cc1	8%	-6	-33%	-0.7%
CCC(=O)N1CCCc2cc(S(=O)(=O)N3CCC(N4CCCCC4)CC3)ccc21	2%	-2	-3%	-0.4%

No new results follow: entries from further up.
SMILES	Rango dissoc inh	GLA inh pH 4.5	miR-21 reporter	Rango-impB inh
Cc1ccc(OCC(=O)Nc2ccc(Cl)cc2)c(-n2nc3ccccc3n2)c1	13%	6	-1%	-1.2%
COc1cc2c(cc1OC)C(C)N(S(=O)(=O)c1cccs1)CC2 (stereo unspecified)	-9%	·	-5%	6.7%

Remaining list, next part
SMILES	Rango dissoc inh	GLA inh pH 4.5	miR-21 reporter	Rango-impB inh
O=C(c1cc(C2CC2)nn1-c1ccccc1)N1CCN(S(=O)(=O)c2cccc(F)c2)CC1	1%	·	·	6.1%
O=C(NCc1ccccc1OC(F)(F)F)C1CCC(=O)N(CCc2ccccn2)C1 (stereo unspecified)	-5%	·	·	-1.3%
Cc1ccc(CCC(=O)Nc2ccc(C)c(C)c2)o1	7%	·	-8%	-0.4%
Cc1ccc(-n2nnc3c(=O)n(Cc4cccc(C)c4)cnc32)cc1	-3%	4	-3%	-0.3%
Cn1c(SCC(=O)NC(C)(C)C)nnc1-c1ccc(C(C)(C)C)cc1	-12%	8	-6%	-4.6%
CCN1CCN(c2nc(-c3cccnc3)nc3ccccc23)CC1	3%	-2	-12%	-0.4%
CN(C(=O)CC(NC(=O)c1ccccc1Cl)c1ccccc1)c1ccccc1 (stereo unspecified)	-5%	·	-9%	-0.5%
CNC(=S)N1CCN(CCNC2=CC(=O)CC(C)(C)C2)CC1	-11%	-6	4%	-3.1%
O=C(c1ccc([N+](=O)[O-])cc1[N+](=O)[O-])N1CCN(C(=O)C2CCCO2)CC1 (stereo unspecified)	-9%	·	·	-1.4%
CC(C)(C)C(=O)CSc1nnc(-c2cccs2)n1CC1CCCO1 (stereo unspecified)	-17%	5	-5%	-2.2%
COc1ccccc1OC(=O)CN1C(=O)c2ccccc2C1=O	1%	8	0%	0.5%
CCCCNC(=O)CCCCCn1c(=O)[nH]c2cc(C(=O)OC)ccc2c1=O	18%	26	2%	1.1%
Cc1c(C(=O)Nc2ccc(Br)cc2)cnn1C	4%	-1	-39%	4.2%
Cc1cccc2c1OCC/C2=N\NC(=O)COc1ccccc1Cl	-5%	13	-44%	-4.5%
COCCNc1nc(SCc2ccccc2)nc2sc3c(c12)CCC3	-6%	2	-18%	-2.5%
CCOC(=O)C1=C(CS(=O)(=O)c2ccccc2)NC(=O)NC1c1ccc(OC)c(OC)c1 (stereo unspecified)	7%	3	-3%	0.2%
COc1ccc(CN2C(=O)c3cccnc3C2=O)cc1S(=O)(=O)NC1CCCCC1	38%	·	-1%	-3.1%
COc1ccc(CCNC(=O)CCC2COc3ccccc3O2)cc1OC (stereo unspecified)	-17%	-15	-5%	-1.2%
CC1CC(=O)N(CC(=O)NCc2ccccc2)c2ccccc2S1(=O)=O (stereo unspecified)	5%	·	0%	-3.6%
Cc1cc(-c2ccccc2)nc(N2CCC(C(=O)NCc3ccccc3Cl)CC2)n1	·	5	-30%	·
CC1=C(C#N)C(Nc2ccc(Cl)cn2)(C(F)(F)F)C(=O)N1 (stereo unspecified)	14%	0	-5%	3.9%
CNc1nc2c(N)ncnc2n1[C@H]1O[C@@H](CO)[C@H](O)[C@@H]1O	10%	·	2%	-0.7%
Cc1ccc(/C=N/n2c(C3CCCCC3)n[nH]c2=S)cc1	7%	·	-3%	0.1%
COc1ccc(OCC2c3cc(OC)c(OC)cc3CCN2C(=O)C(C)C)cc1 (stereo unspecified)	2%	4	-13%	-0.5%
CN(/N=C\c1ccc(O)c(O)c1)c1nc(-c2ccccc2)cc(-c2ccccc2)n1	29%	3	7%	-0.9%
CCN1C(=O)NC(c2ccc(Cl)cc2)C2=C1CCCC2=O (stereo unspecified)	-26%	·	1%	1.3%
CC(NC1c2ccccc2-c2ccccc21)c1ccccc1 (stereo unspecified)	1%	·	-3%	1.4%
Cc1ccc(S(=O)(=O)N(C)CC(=O)OCC(=O)N2CC(=O)Nc3ccccc32)cc1	22%	3	1%	0.2%
C/C(=N\O)C1CCCCC1	·	-3	-2%	·
CCCc1nc(-c2cc3ccc(C)cc3[nH]c2=O)no1	22%	8	-41%	0.1%
CC1(C)c2[nH]c3ccccc3c2C[C@@H]2C(=O)N(Cc3ccco3)C(=O)N21	?	·	·	?
Cc1ccc(CS(=O)Cc2ccc(C(=O)N3CCN(c4ccccc4)CC3)o2)cc1 (stereo unspecified)	8%	·	2%	-1.3%
NNC(=O)c1ccc2[nH]c3c(c2c1)CCCC3	0%	-2[21.1 µM]	-2%	-1.7%
Cc1cccc(N2C(=O)CC(Sc3nc(C)c4c(n3)CCCC4)C2=O)c1 (stereo unspecified)	-6%	-4	-5%	1.0%
COC(=O)CSCC(=O)Nc1nnc(-c2cccc(C)c2)s1	0%	4	4%	-0.3%
COc1ccc(/C=C/C(=O)N2CCN(c3ccccn3)CC2)cc1	-6%	·	-14%	-0.1%
CCc1ccc(NC(=O)c2ccc3ncsc3c2)cc1	·	8	-54%	·
Nc1nc(N2CCOCC2)n[nH]1	-9%	-10	1%	?
O=C(c1cc(-c2ccc(O)cc2)on1)N1CCCc2ccccc21	-3%	3	-31%	-0.1%
COC(=O)Cc1ccc(OC(=O)CCS(=O)(=O)c2ccc(Cl)cc2)cc1	4%	·	·	-4.7%
COC(=O)c1cc(OC)c(OC)cc1NC(=S)N1CCN(C/C=C/c2ccccc2)CC1	9%	8	-1%	-0.2%
COc1cc(NC(=O)COn2nnc3ccc(S(C)(=O)=O)cc32)cc(OC)c1	-5%	-2	0%	?
O=C(NCN1CCc2ccccc2C1)c1cnccn1	7%	1	-2%	-0.1%
CCOc1ccc(C2NC(=O)NC(C)=C2C(=O)OC)cc1C (stereo unspecified)	6%	3	-2%	2.6%
Cc1ccc(NC(=O)c2cc3ccccc3o2)nc1	-16%	·	·	?
Cc1cccc(-n2c(C)cc(C)c(C#N)c2=O)c1	-9%	-2	-32%	1.4%
CCC(=O)c1ccc(N2CCN(C(=O)c3ccc(F)cc3)CC2)c(F)c1	-6%	6	2%	0.3%
CSc1ncc2c(=O)[nH]c(-c3ccccc3)nc2n1	12%	·	1%	-0.7%
Cc1ccc(-c2noc(=O)n2CC(=O)Nc2ccc(S(=O)(=O)NC3CC3)cc2)cc1	11%	-5	4%	-1.7%
Cc1ccc(NC(=O)c2c(C(F)(F)F)nn(C)c2Cl)cc1C	2%	6	-13%	0.1%
Cc1ccccc1-c1nnc(Cc2ccccc2)o1	-6%	-2	-64%	1.2%
COC(=O)[C@H](Cc1c[nH]c2ccccc12)NC(=O)NCc1ccc(OC)c(OC)c1	15%	·	2%	-0.5%
O=C(CN(C1CCCCC1)S(=O)(=O)c1ccc(F)cc1)NCCCO	8%	1	0%	-2.5%
O=C(c1coc2ccc(O)cc12)C1CC1	15%	-3	-38%	-2.1%
COC(=O)c1sc(NC(=O)CSc2n[nH]c(N)n2)c(C(=O)OC)c1C	-14%	-21	6%	-0.5%
CCn1cc(/C=N/NS(=O)(=O)c2ccc(C)cc2)c(C)n1	10%	0	-1%	4.7%

Given with values ahead of the structure: part of the list above.
Rango dissoc inh,GLA inh pH 4.5,miR-21 reporter,Rango-impB inh,SMILES
18%,26,2%,1.1%,CCCCNC(=O)CCCCCn1c(=O)[nH]c2cc(C(=O)OC)ccc2c1=O
4%,-1,-39%,4.2%,Cc1c(C(=O)Nc2ccc(Br)cc2)cnn1C
-5%,13,-44%,-4.5%,Cc1cccc2c1OCC/C2=N\NC(=O)COc1ccccc1Cl
-6%,2,-18%,-2.5%,COCCNc1nc(SCc2ccccc2)nc2sc3c(c12)CCC3
7%,3,-3%,0.2%,CCOC(=O)C1=C(CS(=O)(=O)c2ccccc2)NC(=O)NC1c1ccc(OC)c(OC)c1 (stereo unspecified)
